Assay outcomes (PubChem)
YopH inh: YopH tyrosine phosphatase inhibitors, primary screen, biochemical, fluorescence Ex485/Em525. 140,000 tested, 0.16% active. inhibition, %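 (about 10 µM by stock and volumes)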. AID 898, 2007;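 active = inhibition of 50% or more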;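 note: controls were vehicle for no effect and minimum signal wells for full effect; inactives centre near -20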
Arbovirus inh: antivirals against arbovirus infection, primary screen, cell-based, full library, 10K replicate subset; arbovirus infection cell-based antiviral screen; inhibition, % at 10 µM; 200,000 tested, 0.37% active; AID 1251, 2008;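 active = inhibition from about 30%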;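 note: bluetongue infection of BSR cells; cell survival read as ATP light after 72 h; 0% = infected wells without compound and 100% = uninfected wells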
RecA splice inh: Mtb RecA intein splicing inhibitors, primary screen, biochemical, fluorescence, HTS. Protein RecA (Mycobacterium tuberculosis (strain ATCC 25618 / H37Rv)), P9WHJ3. inhibition, %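 (about 9 µM by stock and volumes)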. 290,000 tested, 0.75% active. cell-free RecA intein splicing; in the data active = inhibition above about 30%;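 note: 0% = vehicle wells and 100% = reference inhibitor control wells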
Target sequence (P9WHJ3 whole entry, looked up, canonical isoform): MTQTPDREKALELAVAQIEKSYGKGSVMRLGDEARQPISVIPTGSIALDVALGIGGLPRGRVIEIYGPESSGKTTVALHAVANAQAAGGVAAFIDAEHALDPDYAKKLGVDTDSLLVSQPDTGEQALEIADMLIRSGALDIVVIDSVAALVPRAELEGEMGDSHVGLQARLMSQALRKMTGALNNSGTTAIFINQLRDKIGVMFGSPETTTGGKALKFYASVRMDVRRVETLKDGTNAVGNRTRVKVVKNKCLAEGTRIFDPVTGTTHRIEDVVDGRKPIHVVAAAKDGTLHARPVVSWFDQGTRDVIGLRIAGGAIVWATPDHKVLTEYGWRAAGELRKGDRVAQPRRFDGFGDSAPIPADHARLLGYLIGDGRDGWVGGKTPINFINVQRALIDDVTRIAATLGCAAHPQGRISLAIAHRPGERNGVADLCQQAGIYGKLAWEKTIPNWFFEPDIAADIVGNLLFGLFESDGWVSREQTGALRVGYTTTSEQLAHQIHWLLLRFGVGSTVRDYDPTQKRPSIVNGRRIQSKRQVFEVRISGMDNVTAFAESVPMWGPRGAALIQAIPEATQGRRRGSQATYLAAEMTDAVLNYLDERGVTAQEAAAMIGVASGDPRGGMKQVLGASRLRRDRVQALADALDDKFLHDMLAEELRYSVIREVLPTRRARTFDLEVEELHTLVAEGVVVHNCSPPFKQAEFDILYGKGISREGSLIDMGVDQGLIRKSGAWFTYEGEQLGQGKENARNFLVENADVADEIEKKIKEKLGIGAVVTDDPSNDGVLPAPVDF
Mtb bLac sens: beta-lactam sensitization of Mtb H37Rv, H37Rv; M. tuberculosis H37Rv growth with meropenem, percent inhibition; hits of this screen are not shown here; inhibition, % at 25 µM; AID 434955, 2010; 330,000 tested, 0.27% active;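 active = about 74% or more and at least 40 points above the plate without the antibiotic, then above 30% in a dose series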;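 note: growth measured after seven days incubation then overnight dye step; 0% = bacteria only wells and 100% = bacteria with antibiotic; twin plates without the antibiotic show which effects depend on it; some results filed as inactive read as strong as hits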
Mtb growth: M. tuberculosis H37Rv growth inhibitors, H37Rv strain (AID 1626); M. tuberculosis H37Rv growth inhibition; higher % means a stronger effect; inhibition, % at 10 µM; hits with a dose series show IC50 in µM; 220,000 tested, 0.95% active;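 active = confirmed in a dose series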;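 note: bacteria incubated seven days before Alamar blue readout; 0% = bacteria only wells and 100% = bacteria with antibiotic wells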
Arbovirus inh repeat: also measured in Arbovirus inh; calls as there; inhibition, %; measured here: 10K subset replicate screen; many hits read low in the repeat;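 first of two repeat runs on a subset; 0% = infected and 100% = uninfected wells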
The depositor's hits bear a star; x = not tested or not shown. The list is partial; count on the stated rates, not on these rows.

SMILES | YopH inh | Arbovirus inh | RecA splice inh | Mtb bLac sens | Mtb growth | others
COc1ccc2c(c1)CC/C(=C\Nc1ccc3c(c1)OCO3)C2=O | 4 | -26 | x | -9 | 15%
Cc1cc(C)nc(N/N=C/c2cccc3ccccc23)n1 | -10 | 14 | -0.4 | 4 | 3%
Cc1ccc2[nH]c(=O)c(CN(C)S(=O)(=O)c3cccc4nonc34)cc2c1 | x | x | 3.0 | 1 | x
CC(C)Cn1c(N)c(C(=O)COC(=O)c2ccc(O)cc2)c(=O)n(C)c1=O | x | 1 | 0.3 | 0 | 4%
COc1ccc(NC(=O)COc2nsnc2N2CCOCC2)c(OC)c1 | x | x | 0.4 | -2 | x
CCN1CCN(C(c2cccs2)C(C)NC(=O)c2c(F)cccc2F)CC1 (centres undefined) | -30 | 7 | -2.1 | -4 | -7%
COC(=O)C1=C(C(=O)OC)[C@@H]2N(C)c3ccccc3[C@@]23C[C@@H](C(=O)OC)N(C(=O)C2CCC2)C3=N1 | x | x | 3.6 | -1 | 0%
O=S(=O)(c1ccc(Br)s1)N1CCNCC1 | x | x | -16 | -7 | -4%
O=C(OCC(=O)N1CCc2ccccc2C1)c1cc(=O)[nH]c2ccccc12 | x | x | -2.4 | -1 | -1%
COc1ccc2oc(=O)c(C(=O)NCc3cccnc3)cc2c1 | -19 | -4 | -53 | 7 | -12%
CCCC1(C)SC(NC(C)=O)=NN1C(C)=O (centres undefined) | -106 | -3 | -4.4 | -7 | -1%
O=C(CSc1nc2ccccc2s1)Nc1ccc(N2CCOCC2)c(Cl)c1 | -29 | 30 | 3.9 | 0 | -7%
COc1ccc(CNC(=O)CCOc2ccc(C(C)(C)C)cc2)cc1 | -11 | 5 | 1.1 | 6 | -2%
Cc1ccc2[nH]cc(S(=O)(=O)c3ccc(C)c(C)c3)c(=O)c2c1 | x | x | 1.7 | -9 | x
CC(C)CN1CCN(Cc2cc(F)ccc2-n2cccn2)CC1CCO (centres undefined) | x | 1 | 0.1 | -2 | 4%
Cn1c(=O)c2cc(S(=O)(=O)NCCC(=O)NCC3CCCO3)ccc2n(C)c1=O (centres undefined) | -59 | 2 | 11 | -10 | -6%
C=CCc1cccc2cc(C(=O)NCCOC)c(=O)oc12 | x | -1 | 0.5 | -3 | 1%
O=C(O)COc1ccccc1/C=N/NC(=O)C(O)c1ccccc1 (centres undefined) | x | x | -1.2 | -1 | x
CN(C)CCCN(C(=O)CCc1ccccc1)c1nc2c(F)cccc2s1 | -14 | -18 | 0.4 | 4 | 8%
Cc1cccc(NC(=O)c2cc(S(=O)(=O)N(C)c3ccc(F)cc3)ccc2Cl)n1 | x | x | 6.7 | -6 | x
CCN1C(=O)C(CC(=O)Nc2ccc(F)cc2)N(Cc2cccs2)C1=S (centres undefined) | x | -7 | 4.1 | 0 | -5%
CCn1cc(C(=O)NCC(OC)OC)c(=O)c2cc(S(=O)(=O)N3CCC(C)CC3)ccc21 | x | x | 1.4 | 1 | x
COc1cccc(CNC(=O)COC(=O)CCCNC(=O)c2ccc(Cl)cc2)c1 | x | x | -1.1 | 1 | x
Cc1cnc(CN(C)C(=O)CC2C(=O)NCCN2Cc2cccc(F)c2F)[nH]1 (centres undefined) | x | x | -1.2 | -13 | x
CN(C)C(=S)Nc1ccc(Cc2ccncc2)cc1 | x | x | -2.1 | -1 | x

The list goes on; it opens with the seven that closed the last part.
SMILES | YopH inh | Arbovirus inh | RecA splice inh | Mtb bLac sens | Mtb growth | others
CN(C)CCCN(C(=O)CCc1ccccc1)c1nc2c(F)cccc2s1 | -14 | -18 | 0.4 | 4 | 8%
Cc1cccc(NC(=O)c2cc(S(=O)(=O)N(C)c3ccc(F)cc3)ccc2Cl)n1 | x | x | 6.7 | -6 | x
CCN1C(=O)C(CC(=O)Nc2ccc(F)cc2)N(Cc2cccs2)C1=S (centres undefined) | x | -7 | 4.1 | 0 | -5%
CCn1cc(C(=O)NCC(OC)OC)c(=O)c2cc(S(=O)(=O)N3CCC(C)CC3)ccc21 | x | x | 1.4 | 1 | x
COc1cccc(CNC(=O)COC(=O)CCCNC(=O)c2ccc(Cl)cc2)c1 | x | x | -1.1 | 1 | x
Cc1cnc(CN(C)C(=O)CC2C(=O)NCCN2Cc2cccc(F)c2F)[nH]1 (centres undefined) | x | x | -1.2 | -13 | x
CN(C)C(=S)Nc1ccc(Cc2ccncc2)cc1 | x | x | -2.1 | -1 | x
Cc1ccc(-c2noc(CCC(=O)NCCN3CCc4ccccc4C3)n2)cc1 | -27 | 0 | 1.2 | 9 | 6%
CC1(c2nnc(Cc3ccccc3)o2)CC(c2ccccc2[N+](=O)[O-])=NO1 (centres undefined) | x | x | -1.2 | 0 | x
CCc1ccc(Nc2cc(C)nc3ncnn23)cc1 | x | x | -0.9 | -1 | x
COc1ccc(C2C3C(=O)N(Cc4ccccc4)C(=O)C3ON2c2ccccc2)c(OC)c1OC (centres undefined) | 8 | -4 | x | -5 | x
Cc1ccc(/C(N)=N/OC(=O)COc2ccc(Cl)c(C)c2)cc1 | -34 | 0 | -0.4 | 10 | 13%
O=S1(=O)[C@H]2C[C@@H]3C=C[C@@]2(CN1Cc1ccc(F)cc1)O3 | x | x | -0.2 | 5 | x
Cc1ccc2oc(C(=O)N3CCN(CCO)CC3)c(C)c2c1 | x | x | -0.3 | 2 | x
COc1cccc(C(=O)CN2CCN(S(=O)(=O)c3cccc([N+](=O)[O-])c3)CC2)c1 | -4 | -6 | -7.4 | -9 | -1%
CCC(CO)NCc1ccc(OCC(=O)Nc2cccc(C(F)(F)F)c2)c(OC)c1 (centres undefined) | 4 | -13 | 1.4 | -5 | 2%
Cc1cc2cccc(C)c2nc1SCC(=O)N(C)c1nc(-c2ccccc2)cs1 | -6 | -2 | -2.6 | -6 | -3%
O=C(CCSc1nccn1Cc1ccccc1)N1CCOCC1 | 8 | 4 | -0.3 | -14 | -6%
Cc1ccc(C)c(-c2nnc(NC(=O)Cc3ccccc3)o2)c1 | x | x | -3.3 | 84 | x
COC(=O)C1NN=C(C(=O)c2ccccc2)C1c1ccccc1 (centres undefined) | -31 | -6 | -0.5 | 6 | 1%
CN(Cc1nc2ccc(Cl)cc2[nH]1)Cc1nc(-c2cnccn2)no1 | x | 3 | 1.1 | 2 | 8%
CCOc1ccc(NC(=O)CCNS(=O)(=O)c2ccc3c(c2)CC(C)N3C(C)=O)cc1 (centres undefined) | x | x | -0.5 | -8 | x
Cc1ccccc1NC(=O)N(CCc1nc2ccccc2[nH]1)Cc1ccccc1 | -4 | -13 | x | -8 | 10%
CCOC(=O)N1CCN(C(=O)c2ccc3c(=O)n(Cc4ccc(OC)cc4)c(=S)[nH]c3c2)CC1 | -22 | 12 | x | 13 | 12%
CCN(CCn1cccn1)C(=O)CCc1nnc(-c2ccc3c(c2)OCO3)o1 | x | 4 | -2.5 | -4 | -7%
Cc1noc(C)c1S(=O)(=O)N(CC(=O)Nc1ccc2c(c1)OCCO2)c1ccc(C(C)C)cc1 | -47 | 11 | 3.0 | 1 | 0% | Arbovirus inh repeat=2
O=c1oc2ccccc2c(NCc2cccc(F)c2)c1[N+](=O)[O-] | -1 | -2 | -0.2 | -4 | -13%
Cc1sc(N)nc1-c1ccc(Oc2ccccc2)cc1 | x | x | 7.6 | 2 | x
Cc1cc(C)n(C(=O)c2ccc(C)c(S(=O)(=O)N3CCOCC3)c2)n1 | -17 | -5 | 4.5 | -5 | 4%
CCCC(=O)Nc1ccc(C(=O)NNC(=O)c2cccs2)cc1 | -15 | 1 | 1.7 | -7 | -1%
CCOC(=O)c1c(C)[nH]c(C(=O)COC(=O)c2ccc(O)cc2)c1C | x | x | 2.1 | -8 | 5%
COc1ccc(NC(=O)CN(C)C(=O)c2n[nH]c3ccccc23)cc1 | x | x | 1.3 | -19 | x
SMILES | YopH inh | Arbovirus inh | RecA splice inh | Mtb bLac sens | Mtb growth | others
Cc1nc(C)c(C(=O)Nc2ccccc2)s1 | 0 | 1 | 8.1 | -10 | 0% | Arbovirus inh repeat=-1
O=C(O)CN1C(=O)COc2ccc(S(=O)(=O)N3CCCCCC3)cc21 | x | x | 0.1 | -2 | x
O=C(Nc1ccccc1C(=O)N1CCOCC1)c1cccnc1 | -2 | 5 | -0.5 | -7 | -3%
CC(CCc1ccccc1)NC(=O)COC(=O)c1ccc(F)cc1 (centres undefined) | x | x | -3.5 | 7 | x
Cc1ccccc1-n1nc2c(c1NC(=O)CC(C)C)CS(=O)C2 (centres undefined) | x | x | -1.9 | -2 | x
O=c1cc(CN2CCOCC2)c2ccc(O)c(O)c2o1 | x | x | -6.1 | -1 | x
O=C(O)C1CCCN1c1nc(C(F)(F)F)nc2ccccc12 (centres undefined) | x | 1 | -1.0 | -12 | -11%
CNC(=S)N/N=C/c1ccc(-c2cccc(C(=O)O)c2)o1 | x | x | -18 | -10 | 1%
O=C(NCC(c1cccs1)N1CCOCC1)c1cccnc1 (centres undefined) | x | x | -0.2 | -13 | x
CCc1cc(C(=O)N2CCN(c3ncc(C(F)(F)F)cc3Cl)CC2)sc1C | x | x | 11 | 6 | x
O=C(CSc1nc2[nH]ncc2c(=O)n1-c1ccccc1)NCc1cccs1 | x | 0 | x | 11 | 0%
COc1cccc(/C=N/NC(=O)CCc2ccccc2)c1 | -18 | -7 | 1.4 | -1 | -6%
O=C(Nc1ccc(F)cc1)NC1CCN(Cc2c(F)cccc2Cl)CC1 | x | x | 1.4 | -6 | -10%
Cc1nnc(SCc2cc(=O)[nH]c(/N=C(\N)Nc3ccccc3)n2)s1 | x | x | -0.2 | -14 | -1%
Cc1ccc(N(Cc2ccc(C(=O)Nc3ccccc3C(=O)NCc3ccco3)cc2)S(C)(=O)=O)cc1C | -25 | 1 | 4.1 | 5 | 6%
c1cn2c(Nc3ccc4c(c3)OCCO4)c(-c3ccc(N4CCOCC4)cc3)nc2cn1 | x | x | 0.1 | -9 | 1%
Cc1ccc(-n2nnnc2SCC(=O)Nc2ccccc2-c2ccccc2)cc1C | -3 | -6 | 5.7 | -1 | 2%
CN1C(=O)c2cccc(NCCCN3C(=O)c4ccccc4C3=O)c2C1=O | 0 | 1 | -72 | 6 | 14%
CCN(CC)CCN(Cc1cc2cc3c(cc2[nH]c1=O)OCCO3)C(=S)NCCCOC | x | x | 1.8 | 4 | x
O=C(O)c1ccccc1Sc1ncnc2sc3c(c12)CCC3 | x | 12 | 0.0 | -8 | 3%
Cc1cc(C)c(C#N)c(SCSCc2ccccc2)n1 | -12 | -9 | 6.2 | -4 | 1%
Cc1cc(NC(=O)C2C3C(=O)N(c4cccnc4)C(C(=O)NC(C)(C)C)C34C=CC2(C)O4)no1 (centres undefined) | x | -2 | -0.9 | 14 | -4%
O=C(O)C1C2C=CC(C2)C1C(=O)NCc1ccccc1 (centres undefined) | x | x | -2.0 | 4 | x
Oc1ccc(-c2n[nH]c(=S)n2Cc2ccco2)cc1 | -11 | -3 | 0.5 | -3 | 4%
CC(C)n1c(=O)[nH]c2cc(C(=O)Nc3ccccc3)ccc21 | x | -5 | 7.8 | -2 | 4%
SMILES | YopH inh | Arbovirus inh | RecA splice inh | Mtb bLac sens | Mtb growth | others
Cc1ccc2cc3cc(C(=O)N4CCCCC4C)oc3nc2c1 (centres undefined) | -40 | -6 | -1.9 | 44 | x
Cc1ccccc1Nc1nc(N)nc(COC(=O)c2ccc(S(=O)(=O)N(C)C)cc2)n1 | 17 | 2 | 2.3 | -6 | 4%
COC(=O)c1ccc(-n2nnnc2SCc2ccccc2OC)cc1 | -27 | -2 | x | -8 | 0%
CCOC(=O)Cn1nc(C)c(NC(=O)c2ccc([N+](=O)[O-])c(C)c2)c1C | x | -1 | 1.2 | -11 | 2%
O=C(NCCC1=CCCCC1)C1CC(=O)N(C2CCCCC2)C1 (centres undefined) | -26 | 2 | -0.6 | 6 | -1%
Cc1ccc(NC(=O)c2ccccc2NC(=O)c2cccnc2)cc1 | x | x | 1.2 | 5 | x
COC(=O)c1cc2c(s1)CS(=O)C2 (centres undefined) | -29 | 12 | 2.1 | 4 | 0%
CC(C(=O)c1ccccc1)N1C(=O)c2ccccc2C1=O (centres undefined) | -28 | 2 | -0.2 | 4 | -3%
CCN(CC)C(=O)CSc1nnc(-n2nc(C)cc2C)c2ccccc12 | -40 | 5 | 0.3 | 10 | 1%
Cc1cc(C(=O)N2CCC(Cc3ccccc3)CC2)c(C)o1 | x | x | 4.9 | -9 | x
COc1ccc(CCNC(=O)C2CCCN(C(=O)N(C)C)C2)c(OC)c1 (centres undefined) | -18 | 1 | -1.4 | 3 | -2%
COc1cc(Oc2nc(C(F)(F)F)nc3ccccc23)ccc1C=O | x | x | 2.4 | -5 | x
CC(=O)NCc1cc(-c2nn(C)c(=O)c3ccccc23)ccc1C | -8 | -10 | 0.6 | 2 | -5%
